Screening results deposited in PubChem BioAssay by National Center for Advancing Translational Sciences (NCATS).
SARS PLP yeast – blocks SARS-CoV papain-like protease in a yeast assay; S. cerevisiae expressing SARS-CoV PLpro, growth rescue; control for the full effect not named in the record; Potency, µM (highest dose often 32.9 µM), without a hit: at the highest dose activity, positive = growth rescue; 330,000 tested, 0.19% active; AID 485353; further: 0% is about no effect; nearly all actives have a fitted effect of over 55% in size; growth read by luminescence after 48 h
NS1 inh – influenza NS1 inhibition; S. cerevisiae slowed by influenza A NS1, growth recovery by OD600; Potency, µM (titrated, usually from 46.1 µM), inactives show at the highest dose activity, positive = more growth; 270,000 tested, 0.4% active; AID 2326; further: actives are rising curves; nearly all actives have a fitted effect of over 50% in size
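In this qHTS, NS1 from influenza A is expressed in budding yeast, where it slows growth. Cells are switched from glucose to 2% galactose medium (pH 6.0, -URA), treated with compound, and growth recovery is read at OD600.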
RE007 growth inh – less growth of the S. pombe RE007 Vpr strain; 360,000 tested, 0.21% active; AID 651644; S. pombe RE007 Vpr strain, BacTiter-Glo ATP luminescence, 24 h; control for the full effect not named in the record; Potency, µM (top dose mostly 92.2 µM), for inactives: top-dose activity change, negative = less growth; active = well fitted falling curve with a large enough effect; inconclusive = small, poorly fitted or top-dose-only effect; inactive = no such curve, though single readings can be large or run the other way;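 further: on the % scale 0 is the no-effect control and ±100 the full control effect; nearly all actives have a fitted effect of over 50% in size; the assay follows cell death caused by Vpr and the record does not say whether a fall means rescue or toxicity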
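Fission yeast strain RE007, carrying one chromosomally integrated HIV-1 vpr copy, was seeded at OD 0.01 in PMG+AL medium with 23 nL pinned compound. After 24 h at 30 °C and 99% humidity, viability was read by BacTiter-Glo luminescence.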
Cruzain Triton – cruzain (T. cruzi) inhibition with detergent; P25779; Potency, µM, without a hit: max response, negative = inhibition, hits mostly inhibitors; AID 1478; purified cruzain, Z-FR-AMC fluorescence, 0.01% Triton; 200,000 tested, 0.43% active; active means well fitted curve in the direction sought with a large enough effect; inconclusive means small, poorly fitted or top-dose-only effect, or another doubt; inactive means no such curve, though single readings can be large; an effect the other way counts as inactive or inconclusive;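 further: plate controls were neutral wells for no effect and buffer without enzyme for full effect; nearly all actives have a fitted effect of over 40% in size; top concentration of the series not given in the record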
Target sequence (P25779 123-467 limits assumed): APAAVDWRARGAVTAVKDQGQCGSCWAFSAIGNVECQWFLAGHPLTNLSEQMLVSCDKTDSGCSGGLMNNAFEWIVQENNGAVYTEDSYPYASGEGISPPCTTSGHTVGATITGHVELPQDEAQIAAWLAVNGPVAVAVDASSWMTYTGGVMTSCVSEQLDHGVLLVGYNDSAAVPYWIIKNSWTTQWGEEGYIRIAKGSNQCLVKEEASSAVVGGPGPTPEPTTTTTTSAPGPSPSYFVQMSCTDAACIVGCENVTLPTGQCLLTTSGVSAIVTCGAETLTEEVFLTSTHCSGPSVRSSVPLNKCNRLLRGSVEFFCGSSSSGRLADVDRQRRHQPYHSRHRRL
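Detergent-containing run (0.01% Triton X-100) in acetate buffer pH 5.5 with 5 mM DTT: enzyme at 1.5 nM final, 15 min compound preincubation at room temperature, then 2 uM Z-FR-AMC substrate. Activity taken as 60 s fluorescence increase at 360/450 nm.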
2A StopGo – FMDV 2A StopGo reporter, luciferase signal | Potency, µM (highest dose often 57.9 µM), inactives show top-dose signal change, negative = less light | AID 1159524 | human cells with a luciferase reporter of 2A StopGo recoding; control for the full effect not named in the record | 410,000 tested, 1.2% active; active = well fitted falling curve with a large enough effect; inconclusive = small, poorly fitted or top-dose-only effect; inactive = no such curve, though single readings can be large or run the other way; tested in HEK293T cells; further: on the % scale 0 is the no-effect control and ±100 the full control effect; nearly all actives have a fitted effect of over 45% in size; luciferase light after 4 h
Marburg entry inh – blocks Marburg virus binding to or entry into cells; Marburg virus pseudotyped entry inhibition, cell reporter; control for the full effect not named in the record; about a third of the inactives were read at about 46 µM; Potency, µM (titrated, usually from 37.8 µM), without a hit: top-dose activity change, negative = inhibition, actives largely listed as inhibitors; 300,000 tested, 1.8% active; active = well fitted inhibition curve with a large enough effect; inconclusive = small, poorly fitted or top-dose-only effect, or effect the other way; inactive = flat fitted curve, though single readings scatter; tested in HEK293 cells; about a fifth of its hits are not listed in these tables; further: on the % scale 0 is the no-effect control and ±100 the full control effect; luciferase read-out
Cruzain inh noDet – blocks cruzain activity in detergent-free assay; P25779; purified cruzain, Z-FR-AMC fluorescence, no detergent; Potency, µM, without a hit: max response, negative = inhibition, actives largely listed as inhibitors; 200,000 tested, 2.3% active; active means well fitted curve in the direction sought with a large enough effect; inconclusive means small, poorly fitted or top-dose-only effect, or another doubt; inactive means no such curve, though single readings can be large; an effect the other way counts as inactive or inconclusive;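 further: plate controls were enzyme without inhibitor for no effect and buffer without enzyme for full effect; nearly all actives have a fitted effect of over 40% in size; top concentration of the series not given in the record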
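Detergent-free condition (0.00005% Triton X-100) in acetate buffer pH 5.5 with DTT. 1.5 nM enzyme and compound were pre-mixed 15 min, then 2 uM Z-FR-AMC substrate added; reaction progress from fluorescence change between first and third reads (60 s).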
LASV entry inh – blocks Lassa virus binding to or entry into cells; Lassa virus pseudotype entry inhibition, cell reporter; control for the full effect not named in the record; Potency, µM (doses to about 37.9 µM), for inactives: top-dose activity change, negative = inhibition, actives largely listed as inhibitors; 300,000 tested, 1.2% active; active means well fitted inhibition curve with a large enough effect; inconclusive means small, poorly fitted or top-dose-only effect, or effect the other way; inactive means flat fitted curve, though single readings scatter; tested in HEK293 cells; further: on the % scale 0 is the no-effect control and ±100 the full control effect; nearly all actives have a fitted effect of over 50% in size; luciferase read-out
* hit, by the source's call; ? = inconclusive; . = no result given; & = joins results of further samples; [ ] = dose if it differs, or a comment. Unless noted, the call rests on the fitted dose curve; in most records, active means well fitted rising curve with a large enough effect; inconclusive means small, poorly fitted or top-dose-only effect; inactive means no such curve, though single readings can be large or run the other way. Potency means the concentration at half of the fitted maximal effect.

SMILES	SARS PLP yeast	NS1 inh	RE007 growth inh	Cruzain Triton	2A StopGo	Marburg entry inh	Cruzain inh noDet	LASV entry inh
N=C1/C(=C/c2ccc(Br)o2)C(=O)N=C2SC(CC(=O)N3CCCC3)=NN12	-2%	0%	-8%	.	0%	.	.	.
O=C(c1ccc(OC2CCN(CCc3ccccc3)CC2)cc1)N1CCCC1	-4%	-8%	1%	.	16%	?	.	-24%
NS(=O)(=O)c1ccc(CCNC(=O)c2ccc([N+](=O)[O-])cc2[N+](=O)[O-])cc1	0%	5%	-25%	.	4%	3%[46.1 µM]	.	-11%
CCCn1nc(C(=O)Nc2ccc(S(=O)(=O)Nc3ncccn3)cc2)c2ccccc2c1=O	-1%	-5%	-16%	.	-7%	6%[46.1 µM]	.	18%
CC1CC(C)CN(C(=O)CCNS(=O)(=O)c2ccc3c(c2)CCC(=O)N3)C1 (stereo not drawn)	3%	-12%	3%	-1.4%	-1%	11%	5%	0%
O=C(Nc1ccc2c(c1)C(=O)N(CC1CCCO1)C2=O)c1ccccc1Br (stereo not drawn)	-3%	0%	14%	-2.8%	-11%	14%	8%	-3%
Cc1ccc(C)c(-c2nnc(NC(=O)c3ccc4c(c3)OCCO4)o2)c1	.	.	.	3.6%	-21%	.	5%	-7%[46.1 µM]
Cc1cc(-c2nc3ncccc3o2)ccc1N	-25%	-22%	-7%	28µM*	39%[activator]	-10%[46.1 µM]	?	11%
CCN(CC(=O)Nc1ccc(NC(C)=O)cc1)C(=O)c1cc(CN2C(=O)c3ccccc3C2=O)ccc1OC	6%	.	-15%	.	-22%	-13%	.	15%
Nc1nc(Oc2ccc(F)cc2)c(Br)c(=O)[nH]1	0%	5%	3%	.	24%	.	.	.
COc1ccc(-c2noc(N3CCC(C(=O)Nc4ccc(OC)c(OC)c4)CC3)n2)cc1	0%	10%	0%	-2.1%	-18%&1%	.	2%	0%[46.1 µM]
CC12CCC(C(=O)N(NC(=O)c3ccccc3O)C1=O)C2(C)C (stereo not drawn)	2.8µM*	-3%	?	-3.9%	21%	-32%	-8%	?
COc1ccc(NS(=O)(=O)/C=C/c2ccc(OC)c(OC)c2)cc1	1%	.	-12%	.	23%	-1%[46.1 µM]	.	-1%
Cc1ccc(NC(=O)NCc2cccn2Cc2ccccc2)cc1F	.	.	.	-7.8%	0%	.	0%	-8%[46.1 µM]
O=P(NS(=O)(=O)c1ccc(Br)cc1)(Oc1ccccc1)Oc1ccccc1	0%	8%	8%	-9.4%	.	22%	?	-14%

The final 7 entries of the part above open the next one:
SMILES	SARS PLP yeast	NS1 inh	RE007 growth inh	Cruzain Triton	2A StopGo	Marburg entry inh	Cruzain inh noDet	LASV entry inh
CCN(CC(=O)Nc1ccc(NC(C)=O)cc1)C(=O)c1cc(CN2C(=O)c3ccccc3C2=O)ccc1OC	6%	.	-15%	.	-22%	-13%	.	15%
Nc1nc(Oc2ccc(F)cc2)c(Br)c(=O)[nH]1	0%	5%	3%	.	24%	.	.	.
COc1ccc(-c2noc(N3CCC(C(=O)Nc4ccc(OC)c(OC)c4)CC3)n2)cc1	0%	10%	0%	-2.1%	-18%&1%	.	2%	0%[46.1 µM]
CC12CCC(C(=O)N(NC(=O)c3ccccc3O)C1=O)C2(C)C (stereo not drawn)	2.8µM*	-3%	?	-3.9%	21%	-32%	-8%	?
COc1ccc(NS(=O)(=O)/C=C/c2ccc(OC)c(OC)c2)cc1	1%	.	-12%	.	23%	-1%[46.1 µM]	.	-1%
Cc1ccc(NC(=O)NCc2cccn2Cc2ccccc2)cc1F	.	.	.	-7.8%	0%	.	0%	-8%[46.1 µM]
O=P(NS(=O)(=O)c1ccc(Br)cc1)(Oc1ccccc1)Oc1ccccc1	0%	8%	8%	-9.4%	.	22%	?	-14%
Cn1cccc1-c1cc(C(=O)O)[nH]n1	4%	9%	-16%	2.0%	-1%	9%	7%	28%
Cc1ccc(OCCCN2CCOCC2)cc1	-5%	4%	2%	.	29%	0%[46.1 µM]	.	23%[46.1 µM]
Cc1cccc(NC(=O)C2CCCN2C(=O)OCC(C)C)c1C (stereo not drawn)	2%	-4%	-11%	1.1%	-2%	-12%	-13%	12%
COc1ccc2c(c1)cc(C(=O)O)n2C	-2%	-42%	17%	0.4%	15%	16%	11%	-1%
O=C(CN1CCN(c2ccc(F)cc2)CC1)OCc1ccccc1	8%	-10%	-3%	1.5%	-17%	8%	2%	-4%
CC(=O)Nc1ccc(S(=O)(=O)N(C)CC(=O)OCC(=O)N2CCCCCC2)cc1	-1%	5%	1%	.	-12%	12%[46.1 µM]	.	5%[46.1 µM]
Cc1cc(C)cc(C(=O)Nc2ccc(N3CCN(S(C)(=O)=O)CC3)cc2)c1	0%	-6%	9%	.	-10%	-6%[46.1 µM]	.	0%[46.1 µM]
COc1ccc(NC(=O)c2onc(C)c2Cl)cc1OC	-4%	-7%	-5%	2.3%	16%	-5%	-12%	.
O=C(NCCSc1ccc(Br)cc1)c1ccc2nc[nH]c2c1	-6%	24%	-26%	.	33%[activator]	0%	.	8%
CCC(C(=O)N1CCOCC1)n1nc(C)c2c(C)n(-c3ccccc3)nc2c1=O (stereo not drawn)	-2%	14%	17%	.	-21%	.	.	.
Cc1cc(-c2nnc(CCC(=O)NCC(C)c3ccccc3)o2)no1 (stereo not drawn)	1%	1%	5%	.	20%	?	.	?
CC(=O)N1N=C(c2cccs2)CC1c1ccc(Br)cc1 (stereo not drawn)	-3%	-40%	8%	.	10%	.	.	.
O=C(c1cccc(OC2CCN(Cc3cccc(OCCO)c3)CC2)c1)N1CCCC1	-7%	-3%	-11%	.	-14%	?	.	-13%
CCN(CC)S(=O)(=O)c1ccc(Cl)c(C(=O)Nc2nnc(C)s2)c1	-4%	-15%	-11%	0.2%	-22%	-5%	0%	?
COc1ccc(/C=C/C(=O)NCC(=O)N/N=C/c2cc(Br)ccc2OCc2ccccc2)cc1	-5%	-4%	1%	2.7%	0%	?	6.3µM*	?
Cc1cc(C(=O)COc2ccc(C#N)cc2)c(C)n1CC1CCCO1 (stereo not drawn)	3%	.	4%	.	-21%	-19%[46.1 µM]	.	-15%[46.1 µM]
COC(=O)C(C)Oc1cc(C)cc2oc(=O)c3c(c12)CCCC3 (stereo not drawn)	.	-115%	-7%	-15%	-17%	10%	14%	15%
CCn1cnc2sc(C(=O)O)c(C)c2c1=O	-4%	-6%	13%	2.7%	9%	-17%[46.1 µM]	-6%	-25%
CCCNC(=O)c1c(NC(=O)c2ccc(C)cc2)sc2c1CCCCC2	.	.	.	-0.9%	0%	0%[46.1 µM]	-8%	12%[46.1 µM]
CCOC(=O)c1cc(C)sc1/N=C/C1C(=O)NC(=S)NC1=O	1%	.	1%	.	-19%	9%[46.1 µM]	.	-19%
COc1ccc(CCn2c(=N)c(C(=O)NCC3CCCO3)cc3c(=O)n4cccc(C)c4nc32)cc1OC (stereo not drawn)	-3%	-1%	5%	.	-14%	?	.	?
CC(=O)Nc1ccc(NC(=O)C(C)Sc2n[nH]c(-c3ccc(C)cc3)n2)cc1 (stereo not drawn)	-2%	.	18%	.	2%	2%[46.1 µM]	.	-18%
COc1ccc(CNc2nc(-c3ccco3)nn2C(=O)c2ccccc2Cl)cc1	.	.	.	-2.2%	20%	18%[46.1 µM]	-2%	?
O=C(NCCCN1CCCC1=O)c1cccc(S(=O)(=O)N2CCN(c3ccccc3)CC2)c1	-2%	-7%	9%	.	-17%	-17%	.	-34%
COc1ccc(S(=O)(=O)N(CC(=O)NCCSc2ccccn2)c2ccccc2)cc1	0%	-1%	2%	.	?	-3%[46.1 µM]	.	?
Cc1ccc(NC(=O)CSc2nnc(Cc3csc(C)n3)o2)c(C)c1	-6%	.	2%	.	-5%	-5%	.	-2%
O=P(Nc1cccc(F)c1)(Oc1ccccc1F)Oc1ccccc1F	-1%	0%	0%	.	-9%	.	.	.
COCCN(C(=O)CCC(=O)Nc1cc(C)on1)C(C(=O)NC(C)(C)C)c1ccccc1Cl (stereo not drawn)	-1%	21%	-4%	.	25%	9%	.	10%
COc1ccc(NS(=O)(=O)c2ccc3oc(=O)ccc3c2)cc1	5%	10%	4%	.	13%	.	.	.
O=S(=O)(NCCc1csc(-c2cccc(F)c2)n1)c1cc(F)ccc1F	.	.	.	-11%	32%[activator]	.	-2%	-3%[46.1 µM]
Cc1cc2oc(=O)c(CC(=O)NCCCO)c(C)c2c2occ(C(C)(C)C)c12	1%	12%	-14%	.	0%	.	.	.
O=C(Nc1ccccc1)N(CCc1nc2ccccc2[nH]1)C1CCCC1	-4%	-9%	1%	0.3%	30%	8%	-6%	31%[14.3 µM]
Cc1cc(C)cc(NC(=O)NCc2c(-c3ccccc3)noc2C)c1	0%	-3%	-3%	.	-14%	-10%	.	-12%
C=CCc1c(C)c(C#N)c2nc3ccccc3n2c1N1CCCCC1	-2%	0%	-8%	.	?	14%[46.1 µM]	.	-4%[46.1 µM]
CCOc1ccc(OCCC(=O)N(CCC(C)C)c2c(N)n(Cc3ccccc3)c(=O)[nH]c2=O)cc1	.	.	38%	.	-11%	?	.	?
COc1cc(C)nc(N2CCCC(C(=O)Nc3cccc(Cl)c3Cl)C2)n1 (stereo not drawn)	2%	1%	7%	2.5%	4%	3%&13%	-9%	0%
NC(=O)c1cc2ccccc2o/c1=N/NC(=O)c1cccc(Cl)c1	-2%	-1%	2%	.	?	.	.	.
